MLL AF4-AF9 inh – MLL-AF4/AF9 protein interaction inhibition | AlphaScreen, biotin-AF4 peptide binding to FLAG-AF9 | inhibition, % at 10 µM | 0.47% of 350,000 active | AID 651704;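 active = every replicate reaching a set inhibition limit, whatever the replicate mean, cut at about 25% in these data; inconclusive = mean inhibition reaches that limit but some replicates miss it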;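 also: 0% = plate neutral control median and 100% = total signal loss; the record names both 10 and 1 µM as test concentration; the first replicate is given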
FGF22 binding – shifts melting point of recombinant human FGF22. Q9HCT0. recombinant FGF22 thermal shift, SYPRO orange fluorescence; percent of sucrose octasulfate shift, DMSO zero. calls only at 9.99 µM. 1.5% of 340,000 active. AID 651658;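 active = melting point raised past a set limit in the mean and every replicate; inconclusive = no clear call; three in four hits are not shown here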
Target sequence (Q9HCT0 whole entry, looked up): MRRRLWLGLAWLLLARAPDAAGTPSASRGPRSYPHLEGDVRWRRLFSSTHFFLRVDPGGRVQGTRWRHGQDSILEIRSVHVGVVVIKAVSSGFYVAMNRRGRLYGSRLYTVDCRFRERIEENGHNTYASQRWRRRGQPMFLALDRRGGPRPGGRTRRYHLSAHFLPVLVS
HNF4A DNA FP – change in binding of human HNF4 alpha to DNA; P41235; HNF4a-FITC DNA binding, fluorescence polarization, 1 h; activity change, % at 10 µM; 0.3% of 360,000 active; AID 1224865; in the data active = activity change above about 30%, passing the limit was not always enough;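 also: controls were the assay level and a saturating level of protein; the project sought stronger binding though the title names inhibitors; some compounds called inactive have numbers as strong as hits; positive values seem to mean higher polarization but the record does not say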
Target sequence (P41235 whole entry, looked up): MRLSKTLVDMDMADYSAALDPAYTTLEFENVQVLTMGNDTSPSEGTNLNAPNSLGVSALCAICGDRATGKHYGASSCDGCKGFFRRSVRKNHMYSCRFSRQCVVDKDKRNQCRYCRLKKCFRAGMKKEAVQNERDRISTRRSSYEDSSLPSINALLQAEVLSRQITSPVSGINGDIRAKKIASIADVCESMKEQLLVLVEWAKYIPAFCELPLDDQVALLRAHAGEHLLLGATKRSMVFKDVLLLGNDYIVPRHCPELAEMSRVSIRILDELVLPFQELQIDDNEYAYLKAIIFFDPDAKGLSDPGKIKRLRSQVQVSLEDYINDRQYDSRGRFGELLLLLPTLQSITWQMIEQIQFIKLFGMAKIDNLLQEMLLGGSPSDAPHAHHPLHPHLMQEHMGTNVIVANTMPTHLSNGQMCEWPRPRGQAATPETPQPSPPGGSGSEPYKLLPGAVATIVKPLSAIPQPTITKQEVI
UCH37 DUB inh – blocks the human deubiquitinase UCH37; 0.33% of 330,000 active; purified proteasome/UCH37, Ub-AMC cleavage fluorescence; Q9Y5K5; inhibition, % (test concentration not listed);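 active = mean of two replicates above 20%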;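 also: 0% = compound-free wells with enzyme and 100% = wells lacking proteasome; stock transfer was 100 nL into about 20 µL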
Target sequence (Q9Y5K5 whole entry, looked up): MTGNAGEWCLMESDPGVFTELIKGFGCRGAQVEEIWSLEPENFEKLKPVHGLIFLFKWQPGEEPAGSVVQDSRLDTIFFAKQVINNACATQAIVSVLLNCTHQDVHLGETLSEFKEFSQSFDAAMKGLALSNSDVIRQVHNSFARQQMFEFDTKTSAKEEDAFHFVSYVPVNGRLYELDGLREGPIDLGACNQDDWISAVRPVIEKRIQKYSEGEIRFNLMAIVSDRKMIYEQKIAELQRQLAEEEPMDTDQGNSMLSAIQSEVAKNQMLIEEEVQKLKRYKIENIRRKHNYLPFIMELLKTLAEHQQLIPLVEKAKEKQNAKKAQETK
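Test system – human UCH37 enzyme supplied as purified proteasome complex · Incubation – 30 min preincubation with enzyme, 25 min cleavage at room temperature · Detection – AMC fluorescence from Ub-AMC cleavage, excitation 355 nm, emission 460 nm · Benchmarks – no-proteasome wells (full inhibition) and compound-free wells (no inhibition)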
Vif A3G – inhibitors of Vif binding to APOBEC3G peptide, primary screen, biochemical, TR-FRET, GST-Vif 1-94, biotin-A3G peptide, dose response retest (AID 1117319). TR-FRET GST-Vif / biotin-A3G peptide binding; higher % means a stronger effect; test concentration not given here; strong numbers were not always called active. one-dose inhibition, %; IC50 in µM for titrated hits. 0.57% of 260,000 active;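 active = above the screen mean plus three standard deviations and confirmed in dose response; inconclusive = results disagree or hit not tested in dose response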;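 also: Vif residues 1-94 fused to GST binding biotinylated APOBEC3G peptide 110-148; 0% = full assay without inhibitor and 100% = GST in place of GST-Vif; retest series ran down from 100 µM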
RanGTP-Imp inh – disruptors of Ran-importin-beta complex formation – biochemical, FRET, CFP-Ran, YFP-importin-beta, homogeneous, primary screen; inhibition, % (test concentration not listed); AID 2216; 1.1% of 300,000 active; cell-free CFP-Ran/YFP-importin-beta FRET ratio;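 active = most replicates above 15%; inconclusive = exactly half above 15%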;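 also: 0% = DMSO wells and 100% = Ran loaded with GDP instead of GTP; wells of about 40 µL received 100 nL stock; the first replicate is given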
E coli growth – blocks Escherichia coli growth; OD600, 23 h; active compounds read low; 0.21% of 330,000 active; AID 1053175; OD600 absorbance (no concentration beside the values);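 active = OD600 absorbance below the run mean of sample wells minus 3.6 SD, in any replicate, cut at about 0.56 in these data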;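 also: stock transfer was 300 nL into about 60 µL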
* marks the source's active call; other numbers are inactive results; i = inactive; ? = inconclusive; nt = not tested or not shown.

SMILES	MLL AF4-AF9 inh	FGF22 binding	HNF4A DNA FP	UCH37 DUB inh	Vif A3G	RanGTP-Imp inh	E coli growth
Cc1noc(NS(=O)(=O)c2ccc(NC(=O)NC(C)(C(F)(F)F)C(F)(F)F)cc2)c1C	-2.3	i	2.2	1.9	0.5%	3.8	0.628
CC1Cn2c(CCc3ccccc3)nnc2S1 (stereo unspecified)	nt	nt	-2.3	-0.6	0.7%	4.3	0.645
COC1=C(Nc2ccc(O)cc2)C(=O)c2ccccc2C1=O	50.0*	i	-0.2	9.6	27.6%	7.2	0.695
COc1ccc(Nc2oc(-c3ccccc3)nc2C#N)cc1	-0.7	i	-3.5	-17.4	?	1.3	0.724
O=C(CC12CC3CC(CC(Br)(C3)C1)C2)NC1CCCC1	-2.7	i	0.0	-1.6	nt	-1.6	0.705
COc1ccc(CC2NCCC3(O)CCCCC23)cc1 (stereo unspecified)	nt	nt	2.0	3.7	-6.7%	-2.4	0.72
CCCCN(C(=O)Cn1nnc2ccccc21)C(C(=O)NCCOC)c1ccccc1 (stereo unspecified)	nt	nt	2.5	1.4	-6.0%	-0.7	0.749
CN(C(=O)CSc1n[nH]c(-c2cccs2)n1)C1CCS(=O)(=O)C1 (stereo unspecified)	-0.4	i	-1.2	2.4	-3.0%	5.7	0.644
Cc1ccc(NS(=O)(=O)c2ccc(C(=O)N3CCCCCC3)cc2)cc1	-0.5	i	1.2	2.1	-0.8%	nt	0.679
CC1(C)CC(=O)C(N=Nc2cccc(S(=O)(=O)N3CCOCC3)c2)=C(O)C1	2.9	i	0.5	11.6	30.0%	-1.9	0.683
O=C(O)CN1C(=O)c2cccc3c(Br)ccc1c23	0.4	i	-0.4	-2.3	-7.2%	-11.5	0.712
CCN(CC)S(=O)(=O)c1ccc(S(=O)(=O)N2CCCC2)cc1	-0.7	i	0.2	1.2	-3.3%	-1.4	0.682
CCc1ccc(NC(=O)C(C)OC(=O)c2ccc(NS(=O)(=O)c3ccc(C)c([N+](=O)[O-])c3)cc2)cc1 (stereo unspecified)	2.8	i	-1.4	5.1	-3.5%	1.4	0.708
CCc1ccccc1NC(=O)N1CCc2ccccc21	-0.7	i	3.1	4.4	68.5%	-2.1	0.684
O=C(O)c1ccc(/C=N/N2CCN(C3c4ccccc4-c4ccccc43)CC2)cc1	-6.7	i	0.7	nt	25.5%	-4.2	nt
O=C1CC(C(=O)Nc2ccccc2)S/C(=N\NC(=O)c2ccccc2Cl)N1 (stereo unspecified)	-1.3	i	0.9	1.5	-1.2%	2.0	0.668
CS(=O)(=O)N1CCN(c2ccccc2NC(=O)Nc2cccc(Cl)c2)CC1	4.0	nt	0.5	1.6	nt	1.4	0.703
OC1(c2cccc(C(F)(F)F)c2)CCNCC1	nt	nt	1.1	5.0	-3.0%	1.6	0.713
O=C1[C@@H]2Cc3c([nH]c4ccccc34)C(c3ccccc3)N2C(=O)CN1CCO (stereo partly specified)	1.4	i	2.0	3.2	3.1%	0.0	0.669
COc1cc(/C=N/NC(=O)c2cccc(NC(=O)c3ccccc3)c2)ccc1O	2.0	i	2.4	nt	nt	-1.1	nt
COc1ccc(C2CC(c3cccs3)=NN2C(=O)CSc2nc(=O)n3ccc(C)cc3n2)cc1 (stereo unspecified)	10.3	i	-4.8	0.8	2.6%	4.7	0.704
Cc1nc(C)c(C(=O)OCC(=O)NCCc2ccc(S(N)(=O)=O)cc2)s1	0.4	i	-1.3	1.2	-4.9%	nt	0.656
COC(=O)c1ccc(NC(=O)COc2cccc(-n3cnnn3)c2)cc1	-4.3	i	0.0	2.4	34.6%	-4.2	0.688
Cc1ccc2nc(N/N=C/c3ccco3)cc(C)c2c1	7.5	i	2.6	nt	14.5%	1.2	nt
O=C(NNC(=O)c1ccccc1O)c1ccc(S(=O)(=O)Nc2ccccc2)cc1	10.8	i	3.4	0.0	14.6%	nt	0.706
The listing continues:
SMILES	MLL AF4-AF9 inh	FGF22 binding	HNF4A DNA FP	UCH37 DUB inh	Vif A3G	RanGTP-Imp inh	E coli growth
N#Cc1cccc(CN2CCC(=O)N([C@H](CO)Cc3ccccc3)CC2)c1	44.3*	i	0.7	1.6	nt	?	nt
Cc1cc(OCC(=O)N2CCC(C(=O)O)CC2)c2c(C)cc(=O)oc2c1	0.1	i	-1.8	-153.3	nt	1.0	0.763
Cn1nnc2cc(NC(=O)NCc3ccc4c(c3)OCO4)ccc21	nt	nt	1.3	0.6	-2.3%	?	0.634
Cn1c(=O)c2c(ncn2CCN(CCO)Cc2ccccc2)n(C)c1=O	nt	nt	-0.3	-0.6	6.8%	0.6	0.676
O=C(NCCCCCNC(=O)c1cccnc1)c1cccnc1	nt	nt	1.4	4.5	-3.4%	6.2	0.735
Cc1ccc(N2CC(C(=O)N(C)CC(=O)Nc3ccc(Cl)c(C(F)(F)F)c3)CC2=O)cc1 (stereo unspecified)	1.2	i	-1.0	3.8	1.4%	-1.5	0.69
CCOc1cc(-c2cn(S(=O)(=O)c3cccc4nsnc34)nc2N)cc(OCC)c1OCC	nt	nt	6.3	1.6	12.4%	-3.9	0.742
Cc1ccc(C)c(Cn2nnc3c(=O)[nH]c(C4CCN(C(=O)c5cccs5)CC4)nc32)c1	nt	nt	-0.9	1.4	-3.0%	0.9	0.734
CCN(CC)S(=O)(=O)c1ccc(C)c(NC(=O)CN2CCN(Cc3ccccc3)CC2)c1	4.4	i	-1.1	2.7	2.3%	-0.8	0.659
CCn1c(=O)c(C(=O)CC#N)c(N)n(Cc2ccccc2)c1=O	2.8	i	1.3	3.4	-27.5%	?	0.697
O=C(COc1ccccc1)NNc1c2ccccc2nc2ccccc12	nt	nt	0.3	-2.2	0.0%	5.2	0.729
CCOc1ccc(-n2nc3cc(C)c(N)cc3n2)cc1	2.7	i	-1.0	-422.2	nt	4.8	0.74
CCN(CC)S(=O)(=O)c1ccc(N2CCCC2)c(NC(=O)c2ccc([N+](=O)[O-])o2)c1	5.4	i	0.5	2.3	-5.4%	nt	0.618
CCc1cccc2c(SC(C)C(=O)NCC3CCCO3)nc(-c3ccccc3)nc12 (stereo unspecified)	nt	nt	4.6	1.3	0.3%	-2.2	0.693
Nn1c(Cc2cccc3ccccc23)nnc1SCc1c(F)cccc1Cl	nt	nt	0.9	1.6	nt	-1.2	0.63
COc1cc(-c2nnc(SCC(=O)c3ccc(C)cc3)o2)cc(OC)c1OC	2.5	i	-0.8	1.3	?	1.6	0.723
COc1ccc(C2CC(=O)N3CN(Cc4ccco4)CSC3=C2C#N)cc1 (stereo unspecified)	nt	nt	-0.3	-1.3	?	3.7	0.723
O=C(NCc1ccco1)c1ccc2c(c1)N(Cc1ccccc1)C(=O)CS2	nt	nt	6.3	3.6	3.2%	1.3	0.642
Cc1onc(-c2ccccc2)c1C(=O)NC1CCCCC1C (stereo unspecified)	-13.3	i	-1.2	nt	nt	nt	nt
Cc1noc(C)c1CSc1nnc2ccc3ccccc3n12	0.4	i	2.4	-1.4	-4.3%	-3.9	0.64
COc1ccc(S(=O)(=O)N(C)CC(=O)NCc2cccnc2)cc1Cl	-24.3	i	-0.1	1.8	10.9%	nt	0.595
CC(NC(=O)c1ccc2c(=O)n3c(nc2c1)CCCCC3)c1ccccc1 (stereo unspecified)	-13.4	i	-3.1	1.1	0.4%	nt	0.698
Cc1ccsc1CN1CCC(C(=O)NCc2ccccc2Cl)CC1	nt	nt	-2.5	1.2	?	0.9	0.662
C#CCSc1nc(-c2cccs2)ccc1C#N	nt	nt	-1.2	-18.2	-37.2%	-0.7	0.721
N#Cc1nc(COc2ccc(F)cc2)oc1NCCCn1ccnc1	nt	nt	2.4	2.7	19.2%	-2.0	0.724
Continuation:
SMILES	MLL AF4-AF9 inh	FGF22 binding	HNF4A DNA FP	UCH37 DUB inh	Vif A3G	RanGTP-Imp inh	E coli growth
CC(C)c1ccccc1NC(=O)Cn1c(/C=C/c2ccccc2)nc2ccccc21	nt	nt	nt	-137.2	2.3%	0.7	0.732
OCCOc1nnnn1-c1ccccc1	nt	nt	-1.7	-7.3	-9.0%	5.6	0.774
COCc1cc(N2CCCCC2)nc(-c2ccccc2)n1	-4.0	i	0.0	-0.6	13.2%	2.0	0.694
Cc1cc(=O)[nH]c(N2CCCNCC2)n1	nt	nt	-1.5	0.0	nt	-1.3	0.683
CCN(C[C@H]1N[C@@](Cc2ccccc2)(C(=O)OC)[C@H]2C(=O)N(Cc3ccccc3)C(=O)[C@@H]12)S(=O)(=O)c1ccc(C(F)(F)F)cc1	-2.7	i	-0.3	4.0	2.9%	nt	0.718
Cc1cc(SCc2ccc(C(F)(F)F)cc2)nc(=O)[nH]1	-3.2	i	5.5	7.0	4.2%	7.6	0.675
COc1ccc(Cl)cc1NC(=O)CN(C)C(=O)Cn1[nH]c(=O)c2ccccc2c1=O	0.7	i	-1.4	0.1	3.0%	nt	0.669
COc1cc(C(=O)Nc2nc(-c3cccs3)cs2)cc(OC)c1OC	5.1	i	-0.5	-10.1	-2.1%	-1.7	0.668
COCCCn1cc(C(=O)c2ccccc2OCC(=O)Nc2cccc(F)c2)cc(C#N)c1=O	-1.6	i	-2.8	2.0	-4.4%	-3.3	0.741
N#CCSc1nc2ccccc2c(=O)n1CCC(=O)NCCc1ccccc1	nt	nt	1.0	1.4	-4.7%	-2.6	0.719
COc1cc(OC)c2c(-c3cccc(-c4ccc(C(C)=O)cc4)c3)cc(=O)oc2c1	nt	nt	2.5	-6.7	-0.2%	nt	0.73
C=CCCCCCCCCC(=O)Nc1ncccn1	1.1	i	-2.1	0.7	32.1%	?	0.669
CC(OC(=O)c1nn(C)c(=O)c2ccccc12)C(=O)Nc1ccc(S(N)(=O)=O)cc1 (stereo unspecified)	-43.5	i	-2.4	-1.6	-3.8%	-5.8	0.645
O=C(CSc1nc2cc(Cl)ccc2s1)NCC1CCCO1 (stereo unspecified)	0.0	i	0.6	2.3	-0.2%	nt	0.631
Cc1ccccc1CNC(=O)c1ccccc1N	nt	nt	-1.7	-148.7	10.2%	5.9	0.723
OC(c1cc(C(F)(F)F)nc2c(Cl)cc(Cl)cc12)C1CCCCN1 (stereo unspecified)	11.0	i	0.6	5.5	14.3%	-2.7	0.616
CC(=O)Nc1ccc(S(=O)(=O)N2CCC(C(=O)c3ccc(F)cc3)CC2)cc1	2.0	i	-0.3	3.3	nt	-0.7	0.665
Cc1ccc(S(=O)(=O)N(C)CC(=O)N2CCCc3ccccc32)cc1	nt	nt	-2.7	0.1	10.0%	-0.8	0.698
CC1(C)Cc2nc3sc4c(=O)n(CC(N)=O)cnc4c3cc2CO1	-3.1	nt	0.3	nt	9.9%	-2.7	nt
COC(=O)c1sc2nc(C)nc(SCC(=O)Nc3sccc3C(N)=O)c2c1C	0.5	i	2.5	3.9	-20.6%	nt	0.626
OCCNCc1cc(Br)ccc1OCc1ccc(F)cc1	2.4	i	2.1	4.8	12.7%	-6.4	0.627
C=CCn1nc([N+](=O)[O-])nc1Sc1cccc2cccnc12	nt	nt	-5.1	-0.2	-8.7%	0.3	0.729
Cc1ccc(C(C)C)c(OCCCN2CC(C)OC(C)C2)c1 (stereo unspecified)	nt	nt	-2.3	1.6	71.6%	1.2	0.683
COc1ccc(S(=O)(=O)N(CC(=O)NN=C2CCN(C)CC2)c2ccc(C)cc2)cc1OC	-1.5	i	-1.3	1.9	nt	-2.9	0.699
NC1=NC2CS(=O)(=O)CC2S1 (stereo unspecified)	-6.4	i	0.0	nt	6.7%	0.7	nt
CCc1ccccc1N(CC(=O)NC(C)(C)CC)C(=O)CCC(=O)Nc1nccs1	6.3	i	-1.4	0.1	nt	1.8	0.678
CC1=CC(C)C2(COC(c3ccc[n+](C)c3)OC2)C(C)C1 (stereo unspecified)	-2.3	i	1.0	0.0	nt	nt	0.633

This is a subset; the hit share may differ from the screen's.
